Screening data as filed in PubChem BioAssay.
PINK1 modulator: PINK1 expression modulation; PINK1 immunofluorescence, high-content cytometry, 24 h; Potency, µM (top dose mostly 76.6 µM), without a hit: at the top dose activation (PINK1 increase), hits mostly activators; actives 0.2% (n = 410,000); active = well fitted activation curve with a large enough effect; inconclusive = small, poorly fitted or top-dose-only effect; inactive = flat fitted curve, though single readings scatter; cell line not stated here;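 also: % of control where 0% means no effect; nearly all actives have a fitted effect of over 65% in size; a mitochondrial uncoupler was the plate control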
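PINK1 protein level read as immunofluorescence by microplate cytometer in a fixed, stained stable cell line after 24 h exposure to five compound concentrations, with CCCP as control.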
Starred values were filed as active, the others as inactive; ? = inconclusive. Potency is read from the fitted curve at half-maximal effect.

PINK1 modulator	compound
5.2%	CCOc1ccc(CCNC(=O)c2cn(-c3ccc(OC)cc3)c(=O)c3ccccc23)cc1OCC
-0.3%	CCOc1ccc(NC(=O)COc2ccc(S(=O)(=O)NC3CCCCC3)cc2)cc1
-0.3%	Cc1ccccc1-c1nc(CN2CCC(C(=O)NCc3ccccc3Cl)CC2)c(C)o1
4.3%	CCOC(=O)c1ccc(NC(=O)Nc2c[nH]c(=O)[nH]c2=O)cc1
0.1%	CCOC(=O)c1cccc(NC(=O)NC(C)c2c(-n3cccc3)sc3c2CCN(C)C3)c1 (stereo unspecified)
-0.3%	Cc1c(CCNC(=O)c2ccc(Br)o2)sc2nc(-c3ccc(F)cc3)nn12
-0.5%	COc1ccc(-c2cc(C(=O)NC(C)c3ccccc3)c3cc(C(C)C)ccc3n2)cc1 (stereo unspecified)
1.0%	CCS(=O)(=O)N1CC(=O)N(c2cc(C)ccc2C)C(C)(C(=O)NC2CCCCC2)C1 (stereo unspecified)
0.8%	O=c1[nH]c(SCc2c(F)cccc2Cl)nc2c1CCC2
4.6%	Cc1ccc2c(=O)cc(C(=O)Nc3sc4c(c3C(=O)NCC3CCCO3)CCCC4)oc2c1 (stereo unspecified)
-0.2%	CC(=O)c1ccc(NC(=O)CSc2c(C(C)C)cnc3c2c(=O)n(C)c(=O)n3C)cc1
0.5%	O=C(CN1Cc2ccccc2OC(c2ccccc2F)C1)NC(c1ccccn1)C(F)(F)F (stereo unspecified)
4.4%	Cc1ccc(-n2ncc3c(NC4CCCCC4)ncnc32)cc1
2.7%	CCOc1ccccc1CNC(=O)c1ccc2c(c1)sc1nc(-c3cccc(OC)c3)cn12
-12%	COc1ccc(NC(=O)Nc2ccccc2OCc2cc(=O)n3ccccc3n2)c(OC)c1
-1.0%	Cc1ccc(N2C(=O)c3n[nH]c(C)c3C2c2ccc(Cl)cc2)cc1 (stereo unspecified)
-1.1%	Cc1ccc(N(C)C(=O)C2CCN(S(=O)(=O)c3ccc4c(c3)CCCN4C(=O)C3CCC3)CC2)cc1
0.2%	Cc1ccccc1C(=O)NC1(C(F)(F)F)C(=O)Nc2c1c(=O)[nH]c(=O)n2CCc1ccccc1 (stereo unspecified)
4.5%	CC1CCN(S(=O)(=O)c2ccc3c(c2)c(=O)c(C(=O)N2CCN(c4cccc(Cl)c4)CC2)cn3C)CC1
-0.6%	CSCCC(NS(=O)(=O)c1ccc2c(c1)oc(=O)n2C)C(=O)NCc1ccc(Cl)cc1 (stereo unspecified)
0.2%	COc1cccc(CNC(=O)c2c(OC)cc(=O)n3c2CCN(C(=O)C2CC=CCC2)CC3)c1 (stereo unspecified)
0.1%	CCCCc1ccc(-n2nc3ccc(NC(=O)c4cc5ccccc5o4)cc3n2)cc1
-1.5%	COc1ccc(CCNC(=O)CCn2c(=O)c3cccn3c3cccnc32)c(OC)c1OC
-0.1%	CCC(=O)N1CCc2cc(S(=O)(=O)NC(CC(C)C)C(=O)NCc3cccc(OC)c3)ccc21 (stereo unspecified)
-1.1%	CCc1ccc(OCC2c3cc(OC)c(OC)cc3CCN2C(=O)c2ccc(S(=O)(=O)N3CCCC3)cc2)cc1 (stereo unspecified)
-0.1%	CCOC(=O)c1ccccc1NC(=O)Cc1c(C(=O)O)c(C)cn1C
0.9%	O=S(=O)(Nc1ccc(-c2ccc(N3CCCCCC3)nn2)cc1)c1cccc(C(F)(F)F)c1
5.3%	CC(C)COc1cccc(C(=O)Nc2ccc(-c3nc4ncccc4o3)cc2)c1
1.5%	COc1ccccc1CNC(=O)C1CCN(c2nn3c(=O)cc(C)nc3s2)CC1
1.2%	Cc1ccc2oc3c(c(=O)c2c1)C(c1ccc(F)cc1)N(Cc1ccc2c(c1)OCO2)C3=O (stereo unspecified)
-0.6%	CCOC(=O)c1c(NC(=O)CS(=O)(=O)c2ccc(C)cc2)sc2c1CCC(C)C2 (stereo unspecified)
0.4%	Cc1cccc(-c2nc3c4ccccc4nc(NCc4ccc(Cl)cc4)n3n2)c1
-0.1%	CC1CN(CCC(=O)NC(c2cccnc2)C(F)(F)F)Cc2cc(Cl)ccc2O1 (stereo unspecified)
0.9%	CC(C)CN(CC(C)C)c1ccc(/C=C/c2nc3ccccc3s2)cc1
1.5%	CC(C)=CCC/C(C)=C/CC/C(C)=C/CCC1(C)CCc2cc(O)ccc2O1 (stereo unspecified)
0.1%	COc1ccc(CNc2nc3c(-c4ccccc4)nnn3c3ccccc23)cc1
1.0%	O=C(Cc1ccc(F)cc1)N1CCC(c2nc3c(nnn3Cc3ccc(F)cc3)c(=O)[nH]2)CC1
0.9%	COc1ccc(C)cc1NC(c1nnc(-c2ccccc2)o1)c1ccc(F)cc1Cl (stereo unspecified)
1.2%	COc1ccc(-c2cc(C(F)(F)F)n3nc(C(=O)Nc4sc5c(c4C#N)CCC(C)C5)cc3n2)cc1OC (stereo unspecified)
-0.2%	CC1CCCN(c2nc3c(S(=O)(=O)c4ccc(C(C)C)cc4)nnn3c3ccsc23)C1 (stereo unspecified)
1.8%	CC1=C(C(=O)Nc2cccnc2)C(c2ccc(F)cc2)n2nc(SCc3ccccc3)nc2N1 (stereo unspecified)
-0.2%	O=C(c1ccco1)n1nc(-c2ccccc2)nc1NCc1ccc(Cl)cc1
3.9%	Cc1c(Cl)cccc1-c1ccc(/C=C(\C#N)c2nc3ccccc3[nH]2)o1
0.2%	COc1ccc(-c2cc(C(=O)Oc3ccc(C#N)cc3)no2)cc1
3.8%	COc1ccc(OC)c(NC(=O)c2cnc(Nc3ccc(C)c(Cl)c3)c3ccccc23)c1
-0.6%	Cc1ccc(O/C=C2/Nn3c(nnc3-c3cc(-c4ccccc4)n[nH]3)S2)cc1
8.7%	O=C(CSc1nc2cc3ccccc3cc2[nH]1)Nc1cccc(C(F)(F)F)c1
16%	Cc1ccc(CNC(=O)c2ccc3c(c2)N(Cc2ccccc2Cl)C(=O)CS3)cc1
2.3%	O=C1SC(Nc2ccccc2)C(=O)N1c1ccccc1 (stereo unspecified)
1.4%	CCC1CN(Cc2ccc(COC)o2)Cc2cc(OC)ccc2O1 (stereo unspecified)
-0.5%	CCCCN(C)CCNC(=O)c1ccc(Cn2c(=O)[nH]c3cc(OC)c(OC)cc3c2=O)cc1
1.0%	O=S(=O)(Nc1ccc(F)cc1F)c1ccc(-n2cccn2)cc1
-1.0%	COC(=O)c1ccc(NC(=O)CCn2cccn2)cc1
-1.5%	Cc1ccsc1CN(C(=O)c1oc2ccc(Br)cc2c1C)C1CCS(=O)(=O)C1 (stereo unspecified)
1.4%	Cc1cc2nc(-c3ccc(Cl)cc3)cc(C(F)(F)F)n2n1
0.4%	CCOc1ccc(CNC(=O)C2Cc3ccccc3N2C(=O)CC)cc1OC (stereo unspecified)
6.0%	CCc1cnc2c(c1SCC(=O)Nc1ccc(C)cc1C)c(=O)n(C)c(=O)n2C
-2.0%	CCc1ccc(NC(=O)CCCc2nc(-c3ccco3)no2)cc1
-4.2%	Cc1cccc(CSCc2ccc(C(=O)NCCc3ccccc3)o2)c1
3.0%	COc1ccc(N2CCN(C(=O)CSc3c4c(nc5ccc(Cl)cc35)CCCC4)CC2)cc1

Exported with bars between the fields: 7 of the compounds above.
Molecule | PINK1 modulator
COc1ccc(OC)c(NC(=O)c2cnc(Nc3ccc(C)c(Cl)c3)c3ccccc23)c1 | 3.8%
Cc1ccc(O/C=C2/Nn3c(nnc3-c3cc(-c4ccccc4)n[nH]3)S2)cc1 | -0.6%
O=C(CSc1nc2cc3ccccc3cc2[nH]1)Nc1cccc(C(F)(F)F)c1 | 8.7%
Cc1ccc(CNC(=O)c2ccc3c(c2)N(Cc2ccccc2Cl)C(=O)CS3)cc1 | 16%
O=C1SC(Nc2ccccc2)C(=O)N1c1ccccc1 (stereo unspecified) | 2.3%
CCC1CN(Cc2ccc(COC)o2)Cc2cc(OC)ccc2O1 (stereo unspecified) | 1.4%
CCCCN(C)CCNC(=O)c1ccc(Cn2c(=O)[nH]c3cc(OC)c(OC)cc3c2=O)cc1 | -0.5%

Further entries follow.
PINK1 modulator	compound
?	O=C(Nc1cc(Cl)cc(Cl)c1)c1ccc(F)c(S(=O)(=O)NC2CCCC2)c1
0.0%	CC(C)(C)OC(=O)N1CCC(c2c(C(=O)Nc3ccc4c(c3)OCCO4)cnn2-c2ccc(F)cc2F)CC1
0.8%	Cc1ccc(Cn2c(C)c(CNC3CCCCC3)c(C(=O)O)c2C)cc1
-0.1%	CCOC(=O)C1CCCN(S(=O)(=O)c2ccc3c(c2)oc(=O)n3C)C1 (stereo unspecified)
0.1%	Cc1ccc(NC(=O)C2CCN(c3nn4cc(-c5ccc(C)cc5)nc4s3)CC2)cc1
6.5%	CCC(=O)N1CCc2cc(S(=O)(=O)CCC(=O)NCc3ccccc3Cl)ccc21
0.5%	Cc1cc(C(=O)N2CCN(c3ccccc3F)CC2)c2c(C)nn(-c3ccccc3)c2n1
-1.1%	Nc1c(-c2nc(-c3ccncc3)no2)nnn1CC(=O)Nc1ccccc1
-0.7%	Cc1ccc(-n2c3c(c(=O)[nH]c2=O)C(NC(=O)C(C)(C)C)(C(F)(F)F)C(=O)N3)cc1 (stereo unspecified)
-1.2%	CCOC(=O)c1ccc(Nc2nc3ccc(C(=O)c4ccccc4)cc3n3c(C)nnc23)cc1
1.1%	COC(=O)c1ccc2c(=O)n(CCCCCC(=O)N3CCN(c4cccc(C)c4C)CC3)c(=O)[nH]c2c1
-0.2%	CCOc1ccc(CCNC(=O)c2cc3c(=O)oc4ccc(C)cc4c3s2)cc1OCC
2.9%	Cc1cccc(CC2C(=O)Nc3ccccc32)c1 (stereo unspecified)
?	Cc1ccc(C(=O)CC2(O)C(=O)N(CCc3ccccc3)c3ccc(Cl)cc32)cc1 (stereo unspecified)
0.2%	CCCCCn1c(=O)[nH]c2cc(C(=O)N3CCN(c4ccc(OC)cc4)CC3)ccc2c1=O
0.0%	COc1ccc(CNC(=O)c2ccc(Cn3c(=O)c4cccn4c4cccnc43)cc2)cc1OC
-0.1%	COc1ccc(C(=O)NCC2(N3CCN(C)CC3)CCCCC2)cc1
-1.8%	CC(=O)OCC#CCSc1nnc(-c2cccc(Br)c2)o1
2.3%	Cc1ccc(C)c(CSc2nnc3[nH]c(=O)cc(-c4ccccc4)n23)c1
3.7%	CC1CCN(C(=O)CN2CCSc3ccc(S(=O)(=O)N(C)C)cc32)CC1
-0.7%	CCOC(=O)c1ccc(N=C2SC(C(=O)Nc3ccccc3)CC(=O)N2C)cc1 (stereo unspecified)
-0.4%	O=C(NCc1ccc(F)cc1)c1ccc(Nc2nc3ccccc3n3nnnc23)cc1
2.6%	CCCCNC(=O)c1ccc2c(c1)NC(=O)C(CS(=O)(=O)Cc1cccc(C)c1)N2 (stereo unspecified)
-0.8%	Cc1cc(C(=O)NCc2nnc3n2CCN(Cc2ccc(C)c(C)c2)CC3)c(C)o1
2.2%	Cc1ccc(CNc2nc(-c3ccco3)nn2S(=O)(=O)c2ccc3ccccc3c2)cc1
7.9%	Cc1ccc(NC(=O)C2CCN(S(=O)(=O)c3c(C)noc3C)CC2)cc1
-1.0%	CC(=O)N1c2ccccc2CC1C(=O)N1CCN(c2ccccc2F)CC1 (stereo unspecified)
1.8%	CCSc1ncc(Cl)c(C(=O)Nc2ccc(S(=O)(=O)N3CCCCC3)cc2)n1
1.4%	CCCCN(CC)C(=O)Cn1c(=O)n(-c2ccc(OCC)cc2)c(=O)c2c3c(sc21)CCC3
0.9%	Cc1ccc(/C=C/c2onc(C)c2S(=O)(=O)N2CCC(C(=O)NCc3ccc(C)o3)CC2)cc1
0.1%	CCOc1ccccc1NC(=O)C(NS(=O)(=O)c1ccc2c(c1)CCC(=O)N2)c1ccccc1 (stereo unspecified)
0.4%	O=C1CC(c2ccco2)Cc2[nH]c(=O)c(C(=O)Nc3ccccc3)cc21 (stereo unspecified)
2.5%	CCOc1cccc(NC(=O)CSc2ncc(-c3ccc(Cl)cc3)[nH]2)c1
3.8%	Cc1cccc(NS(=O)(=O)c2ccc3c(c2)CCN3C(=O)CCC(=O)O)c1C
-1.4%	COc1cccc(C(=O)NC2=NC(c3ccc(N(C)C)cc3)CC(=O)N2)c1 (stereo unspecified)
?	Cc1ccc(NC(=O)Nc2nnc(SCC(=O)N3CCC(C)CC3)s2)cc1
7.9%	O=S(=O)(c1ccc2[nH]c3c(c2c1)CCCC3)N1CCN(c2cccc(C(F)(F)F)c2)CC1
0.0%	Cc1ccc(C)c(S(=O)(=O)c2nnn3c2nc(NCc2cccs2)c2sccc23)c1
-0.3%	O=C(COCc1cc(-c2cccs2)on1)NCc1ccc(F)cc1
8.4%	CCOC(=O)c1[nH]c(C)c(CCC(=O)Nc2ccc(Br)c(C)c2)c1C

Reformatted as labelled records: entries from further up.
Cc1cccc(NS(=O)(=O)c2ccc3c(c2)CCN3C(=O)CCC(=O)O)c1C
  PINK1 modulator = 3.8%

COc1cccc(C(=O)NC2=NC(c3ccc(N(C)C)cc3)CC(=O)N2)c1 (stereo unspecified)
  PINK1 modulator = -1.4%

Cc1ccc(NC(=O)Nc2nnc(SCC(=O)N3CCC(C)CC3)s2)cc1
  PINK1 modulator = ?

O=S(=O)(c1ccc2[nH]c3c(c2c1)CCCC3)N1CCN(c2cccc(C(F)(F)F)c2)CC1
  PINK1 modulator = 7.9%

These rows are one share of the data, so the mix of outcomes need not match the whole.
